Screens from PubChem BioAssay.
NPYLR7 ag: mosquito NPYLR7 agonism. HEK293T NPYLR7/Galpha15, GCaMP6s calcium fluorescence. 270,000 compounds, 0.15% hits. activation, % at 10 µM; in the data active = activation above about 40%;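 note: 0% = vehicle and 100% = reference agonist at the receptor; some compounds past the cut are filed as inactive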
NPYLR7 ag max-min: also measured in NPYLR7 ag; calls as there; activation, %; measured here: Max-Min RFU normalised activation; some inactives read as strong as hits;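 span of the calcium signal over five minutes; 0% = vehicle and 100% = native peptide agonist; compound fluorescence can raise it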
* marks the source's active call; other numbers are inactive results; & = joins results of further samples.

Each structure is followed by: NPYLR7 ag, NPYLR7 ag max-min
- CN(C)C(=O)CCNC(=O)C1CC(c2ccc(F)cc2)=NO1 (centres undefined)
  -1.8, 4.0
- CC(C)(C)c1nn2cnnc2n(/N=C\c2cccc3ccccc23)c1=O
  -1.4, -6.6
- O=C(CCS(=O)(=O)c1cccs1)NC1CCCCCC1
  0.4, 3.1
- COc1cccc(N(C(=O)c2cccc(Cl)c2C)C2=NCCS2)c1
  -0.4, -1.7
- Cn1ccnc1SCC(=O)c1cc2ccccc2oc1=O
  2.8&-0.7, 4.3&0.7
- CCCCc1ccc(C(=O)N2CCSC2c2cccc(Cl)c2)cc1 (centres undefined)
  24.0, 33.9
- CC(=O)Oc1c(-c2ccc(NC(=O)c3cccc(Cl)c3)cc2)c(-c2ccc(C)cc2)nn1-c1ccc(F)cc1
  0.2, 8.7
- CCOC(=O)c1ccc(NC(=O)N2CCSC2c2ccc3c(c2)OCCO3)cc1 (centres undefined)
  -2.0, 8.9
- COC(C)c1cccc(-c2nc(N)nc3[nH]ncc23)c1 (centres undefined)
  9.9, 6.0
- c1ccc(Nc2nc(N3CCOCC3)nc3c2cnn3-c2ccccc2)cc1
  1.5, -0.5
- O=C(Cn1cnnn1)NC(COc1ccccc1)c1ccccc1 (centres undefined)
  2.5, 13.3
- COC(=O)C1CCCN1S(C)(=O)=O (centres undefined)
  15.3, 13.5
- CCc1ccccc1Nc1nc(-c2c(C)nc3cc(C)ccn23)cs1
  -14.2, -19.0
- COc1ccc(CC2CN(Cc3cccn3-c3ncccn3)CCO2)cc1 (centres undefined)
  -3.0, -5.9
- COCC(NC1CCSCC1)c1ccnn1C (centres undefined)
  0.3, 0.3
- O=S1(=O)N(Cc2ccccc2)C[C@@H](O)[C@]12CCN(c1ccccn1)C2
  4.8, 3.5
- Cc1ccc(C(=O)N(C)CC(=O)N(C)C)c(C)c1
  6.1, 4.4
- Cc1noc(C)c1S(=O)(=O)NC(=O)C1(C)CCN1C(=O)c1ccccc1CCc1ccccc1 (centres undefined)
  8.9, 7.0
- C=CCC(=O)Nc1c(C)cnn1C(CC)CC
  4.7, 7.0
- COc1ccccc1C(C)NC(=O)c1[nH]c2c(c1C)C(=O)CCC2 (centres undefined)
  0.3, -1.8

Looked up one by one from the list above (four):
Each structure is followed by: NPYLR7 ag, NPYLR7 ag max-min
- COCC(NC1CCSCC1)c1ccnn1C (centres undefined)
  0.3, 0.3
- COC(C)c1cccc(-c2nc(N)nc3[nH]ncc23)c1 (centres undefined)
  9.9, 6.0
- CC(=O)Oc1c(-c2ccc(NC(=O)c3cccc(Cl)c3)cc2)c(-c2ccc(C)cc2)nn1-c1ccc(F)cc1
  0.2, 8.7
- COc1ccccc1C(C)NC(=O)c1[nH]c2c(c1C)C(=O)CCC2 (centres undefined)
  0.3, -1.8

More records.
Each structure is followed by: NPYLR7 ag, NPYLR7 ag max-min
- COc1ccc(CN(C)CC2(CO)CCOCC2)c(C)c1C
  5.9, 2.8
- COc1ccc(/C=C2\C(=O)N(c3cccc(C(=O)O)c3)N=C2C)cc1
  -1.8, -5.5
- CCc1c(C)c(C(=O)N2CCN(c3ccccc3F)CC2)n(Cc2ccc(F)c(F)c2)c1C
  -5.5, 5.5
- Cn1ccnc1COc1ccc(/C=C2/C(=O)Nc3cc(Cl)ccc32)cc1
  -6.2, -6.0
- CC1=C(C(=O)Nc2ccccc2)C(c2c(F)cccc2F)N(C)C(=O)N1C (centres undefined)
  -14.4, -14.1
- CS(=O)(=O)NCCn1ccc2ccccc21
  3.4, -2.1
- COc1cccc(Cc2nsc(Oc3cc(C(=O)NCc4ccccn4)ccc3OC)n2)c1
  -3.4, -2.7
- O=C(Nc1ccc(S(=O)(=O)N2CCCC2)cc1)C1=NN(c2ccccc2)C(=O)CC1
  -2.7, -5.0
- Cc1ccc(C(NC(=O)c2cc(C)no2)C(F)(F)F)cc1 (centres undefined)
  6.3&8.5, 6.7&5.6
- COc1ccc(Cl)cc1NC(=O)CCC1CCCN(C(=O)c2cc(C)on2)C1 (centres undefined)
  6.1, 7.1
- COc1ccc(Cl)cc1NC(=O)CCC1CCCN(C(=O)CCc2scnc2C)C1 (centres undefined)
  2.6, 2.7
- CC(=O)Nc1ccc(C)c(S(=O)(=O)N2CCCN(Cc3ccc(C(F)(F)F)cc3)CC2)c1
  2.6, 2.7
- COc1cccc(N2CCN(c3nc(C)c4c(n3)CC(C)CC4=O)CC2)c1 (centres undefined)
  -8.8, -20.9
- O=C1c2ccccc2C(=O)c2cc(S(=O)(=O)Nc3ccccc3F)ccc21
  8.6, 5.6
- CC[n+]1ccc(C)c2cc(P(=O)(c3ccccc3)c3ccccc3)ccc21
  -7.9, -15.3
- CCNC(=O)c1ccc(Cl)cc1NC(=O)c1ccc(F)cc1
  5.0, 0.9
- COc1ccc(-c2nc(NCCNS(=O)(=O)c3ccccc3)c3ccccc3n2)cc1
  14.3, 15.2
- CC(O)CC(Sc1ncccc1Cl)C(=O)O (centres undefined)
  -1.9, -3.7
- C#CCOCC(O)CN(CCc1ccccc1)CCc1nc(-c2cc(OC)c(OC)c(OC)c2)no1 (centres undefined)
  10.1, 8.1
- CN(C)c1ccc(C(=O)N2CCCC(c3nccs3)C2)cc1F (centres undefined)
  10.2, 7.2

3 structures out of the list, arranged by molecular weight, high to low.
Each structure is followed by: NPYLR7 ag, NPYLR7 ag max-min
- O=C1c2ccccc2C(=O)c2cc(S(=O)(=O)Nc3ccccc3F)ccc21
  8.6, 5.6
- CC[n+]1ccc(C)c2cc(P(=O)(c3ccccc3)c3ccccc3)ccc21
  -7.9, -15.3
- CC(O)CC(Sc1ncccc1Cl)C(=O)O (centres undefined)
  -1.9, -3.7

Following part
Each structure is followed by: NPYLR7 ag, NPYLR7 ag max-min
- Cc1ccccc1C(CNC(=O)c1cnn2ccn(C)c12)N(C)C (centres undefined)
  16.0, 4.8
- CCC(C)N(Cc1ccsc1)C(=O)CC1=CCNCC1 (centres undefined)
  27.6, 11.4
- Cc1ccc(-c2noc(C(C)NC3CCSCC3)n2)cc1 (centres undefined)
  16.8, 1.5
- C=c1ccc(S(=O)(=O)N2CCCC2)cc1=c1nnc2n1NC(C)=c1ccccc1=2
  -19.0, -23.0
- CCc1nc2ccc(C(=O)N(C)CCCN(C)C)cn2c1N(C)Cc1cccs1
  4.1, -5.0
- O=C(C1CCC1)N1CCN(c2cc(Oc3ccc(F)cc3F)ncn2)CC1
  -8.0, -8.3
- Cc1nc2c(c(N(C)C)n1)CN(C(=O)c1cc(C(F)(F)F)cc(C(F)(F)F)c1)CC2
  5.3, 0.3
- O=C(c1ccc2cccnc2n1)N1CCC2(CCCO2)CC1
  8.5, 4.9
- CC(C)c1c(O)nc(SCC(=O)O)[nH]c1=O
  5.9, 2.8
- COc1ccc(C(=O)Oc2cccc3cccnc23)cc1Br
  -5.3, -11.5
- CC(C)Cn1c(=O)c2c(nc3n2CCCN3c2cccc(Cl)c2)n(C)c1=O
  4.6, 1.6
- O=c1c(SCc2ccccc2F)nccn1-c1ccc2c(c1)OCCO2
  0.3, 2.4
- CCS(=O)(=O)N1CCN=C1SCc1cccc(C)c1
  3.1, 3.9
- Brc1ccc(-c2csc(=NC3CC3)n2N=C2CCCC2)s1
  8.8, 3.6
- CCCCc1noc(Cn2ccsc2=O)n1
  23.1, 13.0
- CS(=O)(=O)Nc1cccc2c1CCCN2CCOc1ccccc1F
  -2.2, -3.8
- CC(Sc1nc2ccccc2s1)C(=O)N/N=C\c1ccccc1Br (centres undefined)
  3.3, 12.7
- CCCCC(=O)Nc1ccc(C)cc1NC(=O)c1cc2ccccn2n1
  -0.9, -1.9
- COCCOc1ncccc1-c1noc([C@@H]2CCCN2)n1
  -7.1, -16.2
- COc1ccc(S(=O)(=O)Nc2ccc(CCNC(=O)NC(C)C)cc2)cc1OC
  -1.3, -6.0
- O=C(CCc1ccncc1)N1CCC2(CCCN(Cc3ccc(F)c(F)c3)C2)C1 (centres undefined)
  4.2, 5.2
- O=C(Cn1cnc2ncccc2c1=O)Nc1ccc(F)c(F)c1
  4.8, 1.5
- C=CC[C@@H]1CC=C[C@@H](C)N1C(=O)Cc1c(C)nc(C)[nH]c1=O
  0.3, 8.7
- Cc1cc(Cn2ccc3ccn(Cc4ccccc4)c3c2=O)no1
  11.0, 6.7
- COc1cccc2c1OCCCN(C(=O)c1cc(NC(C)=O)cc3nc(C)n(Cc4ccccc4)c13)C2
  5.5, 2.9
- CCN(CC)C(=O)Oc1ccc2c(ccn2Cc2ccc(Cl)cc2)c1NC(=O)c1cc(C(F)(F)F)cc(C(F)(F)F)c1
  6.6, 3.2
- COCCCN(CC(=O)N(CCc1c[nH]c2ccccc12)Cc1ccc(Cl)c(Cl)c1)C(=O)c1cccc([N+](=O)[O-])c1
  22.0, 19.4
- Cc1ccc(N(CCC#N)C(=O)CN2CCCc3ccccc32)cc1C
  22.3, 24.6
- CC(C)(C)NC(=O)[C@H]1CCC2C3CCC4NC(=O)C=C[C@]4(C)C3CC[C@@]21C (some centres undefined)
  -8.5, -13.0
- COc1ccc(-c2csc(N3CCN(S(=O)(=O)c4ccc(N5CCCC5=O)cc4)CC3)n2)cc1
  2.5, 4.7
- C=C(C)C(O)(C(=C)C)c1ccc(CN(CCOC)Cc2cccc(OC)c2)o1
  -4.0, -1.5
- COCCCNC(=O)c1nn(-c2cccc(Cl)c2)c(=O)n(Cc2cccc(C)c2)c1=O
  -3.0, -1.8
- CCOC(=O)C1=C(C)N=c2s/c(=C\c3c4ccccc4cc4ccccc34)c(=O)n2C1c1ccc(Cl)cc1 (centres undefined)
  2.2, 8.7
- CN(c1ccccc1)c1ccccc1C(=O)Nc1ccccc1O
  1.7, 2.1
- COc1cccc(-n2cc(Cn3cc(-c4cccc(O)c4)nn3)cn2)c1
  0.5, -2.6
- CCCSc1ncccc1C(=O)NCCC(c1ccccc1)c1ccccc1
  -6.2, -12.3
- O=C(O)CSc1nnnn1C1CCCCC1
  8.3, 1.0
- CNC(=O)C(C1CCCC1)N1CCN(C(=O)Nc2cccc(F)c2)CC1 (centres undefined)
  -4.1, -7.0
- C=CCNc1ccccc1C(=O)N(C)Cc1ccc(CC)cn1
  3.9, -1.1
- COc1ccc(C(C)(O)c2nc(-c3cnc4ccccc4c3)cs2)cc1 (centres undefined)
  8.1, 5.9
- c1ccc(COC2CCCN(Cc3nc(-c4cnccn4)no3)C2)cc1 (centres undefined)
  8.9, 8.1
- COC(=O)c1ccc(COc2ccc(N3CCCC3=O)cc2)o1
  13.7, 5.9
- N#CC(=Cc1ccc(O)cc1)c1nc(C2CC2)cs1
  0.0, -0.4
- Cc1cc(NC(=O)CSC2=NS(=O)(=O)c3ccccc3N2)n[nH]1
  -1.9, -9.6
- CCn1cc(C(CC(=O)NCCc2ccc(Cl)cc2Cl)c2cccc(Cl)c2)c2ccccc21 (centres undefined)
  19.3, 25.7
- Cc1ccc(N(C(=O)c2ccc(S(=O)(=O)N(C)C)cc2)C(=O)N2CCCCC2)cc1
  24.0, 23.9
- Cc1ccccc1C1CCCN(C(=O)CCC2(Cc3ccc(F)cc3)CCC(=O)N2)C1 (centres undefined)
  -3.8, -5.5
- CC(C)(C)c1ccc(S(=O)(=O)Nc2c(F)cccc2F)cc1
  2.4, 0.6
- COc1ccc(-c2c(C#N)c(N)nc(OC)c2C#N)cc1OC
  2.2, -5.1
- COC(=O)c1cn(C(C)C)cc(C(=O)N2CCOC(C(F)(F)F)C2)c1=O (centres undefined)
  -1.9, -7.0
- O=C(Cc1cccs1)NCCn1ncc2c(N3CCCC3)ncnc21
  -0.4, -0.7
- COc1cccc(C2Oc3ccccc3C3CC(c4ccc5c(c4)OCCO5)=NN32)c1 (centres undefined)
  5.4, 5.6
- COC(=O)c1ccc(NS(=O)(=O)c2ccc(F)c(F)c2)cc1
  1.2, 0.0
- Cc1ccccc1N1CCN(C2CCCN(C(=O)CC3CCCC3)C2)CC1 (centres undefined)
  -8.1, -8.9
- NC(=O)c1ccc(C(F)(F)F)nc1N1C[C@H]2C[C@H](O)[C@@H](O)C[C@H]2C1
  16.5, 15.6
- O=c1c(Oc2ccccc2F)coc2cc(O)ccc12
  -2.2, -12.5
- O=C1CC2CS(=O)(=O)CC2N1C1CCCCC1 (centres undefined)
  2.3, 1.4
- N#CC1C(=N)OC2=C(CN(Cc3ccccc3)C/C2=C\c2cccs2)C1c1cccs1 (centres undefined)
  0.3, -3.7
- CC1(C)OC2OC3C(O)COC3C2O1 (centres undefined)
  3.4, 5.8
- CC(C)(C)c1ccc(-c2ccnc3nc(N4CCN(C(=O)CCc5ccccc5)CC4)nn23)cc1
  18.8, 14.0

4 neighbouring entries from above, for reference:
Each structure is followed by: NPYLR7 ag, NPYLR7 ag max-min
- O=C1CC2CS(=O)(=O)CC2N1C1CCCCC1 (centres undefined)
  2.3, 1.4
- N#CC1C(=N)OC2=C(CN(Cc3ccccc3)C/C2=C\c2cccs2)C1c1cccs1 (centres undefined)
  0.3, -3.7
- CC1(C)OC2OC3C(O)COC3C2O1 (centres undefined)
  3.4, 5.8
- CC(C)(C)c1ccc(-c2ccnc3nc(N4CCN(C(=O)CCc5ccccc5)CC4)nn23)cc1
  18.8, 14.0

Following part:
Each structure is followed by: NPYLR7 ag, NPYLR7 ag max-min
- CCc1nc(C)c(C(=O)N2CCCC(c3[nH]ncc3-c3ccc(C)cc3)C2)o1 (centres undefined)
  4.9, 3.6
- O=C(O)c1cncc(-c2cc3ccccc3s2)c1
  18.0, 16.4
- CCOC(=O)c1cc(-c2ccc(N3CCN(C(=O)c4cc(C)oc4C)CC3)cc2)n(-c2ccccn2)n1
  16.0, 8.6
- NC(=O)NNC(=O)c1cc2c(s1)CCCC2
  3.0, 11.8
- COc1cc(C(=O)N2CCC3(CC2)c2ccccc2[C@@H](N)[C@@H]3O)ccn1
  6.6, 4.6
- O=C(O)C1CC(=O)N(C2C3CC4CC(C3)CC2C4)C1 (centres undefined)
  -0.7, -4.3
- CNC(=S)NNc1nc(Nc2ccccc2)nc(N2CCOCC2)n1
  -6.1, -14.9
- CS(=O)(=O)N1CCCC(CNS(=O)(=O)NCc2ccccc2)C1 (centres undefined)
  9.4, 8.0
- CCCN1CCC(NCC(c2sccc2C)N(C)C)CC1 (centres undefined)
  32.8, 15.3
- CC1CCCN(CCNc2nccc(C3CCCC3)n2)C1 (centres undefined)
  2.4, 1.0

An excerpt. The share of hits here may be higher or lower than overall.
